# STAT3 binder: binders of human STAT3 | calls only | Small molecule microarray, His-STAT3 binding, anti-His fluorescence | 17,000 compounds, 0.2% hits;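 active = compounds whose four printed spots each show fluorescence over background unusually high for their array block, chance value under 7%; compounds were printed on slides so no solution concentration is given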;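 note: about 2 pmol printed per array spot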
# mut p53 SMM: binders of human mutant p53; small molecule microarray binding, anti-GST fluorescence; calls only; 17,000 compounds, 0.4% hits; AID 624136;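 active = compounds whose four printed spots each glow above background more than chance allows, each with a p-value under 7%; compounds were printed on slides so no solution concentration is given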;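 note: about 2 pmol printed per array spot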
# ID4 binder: binds human ID4 protein on microarray | calls only | P47928 | small molecule microarray, Flag-ID4 binding, fluorescence F/B | AID 624137 | 31,000 compounds, 1.2% hits;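 active = spot signal over background at p below 0.07 in all four prints; compounds were printed on slides so no solution concentration is given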;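 note: a binder raises fluorescence above local background on the spot; about 2 pmol printed per array spot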
# Target sequence (P47928 whole entry, looked up): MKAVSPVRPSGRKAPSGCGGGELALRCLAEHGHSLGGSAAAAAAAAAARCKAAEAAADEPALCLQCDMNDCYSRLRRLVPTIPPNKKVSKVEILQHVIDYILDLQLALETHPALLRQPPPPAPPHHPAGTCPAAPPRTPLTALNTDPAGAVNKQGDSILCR
# Myc binder: c-Myc (human) binding; small molecule microarray, His-c-Myc binding, anti-His fluorescence; calls only; AID 624141; 17,000 compounds, 1.5% hits; P01106;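 active = spot fluorescence over background with P-value below 7% in all four replicate spots, showing protein binding; compounds were printed on slides so no solution concentration is given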;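 note: score is binary with 100 for all four spots passing and 0 otherwise; about 2 pmol printed per array spot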
# Target sequence (P01106 whole entry, looked up): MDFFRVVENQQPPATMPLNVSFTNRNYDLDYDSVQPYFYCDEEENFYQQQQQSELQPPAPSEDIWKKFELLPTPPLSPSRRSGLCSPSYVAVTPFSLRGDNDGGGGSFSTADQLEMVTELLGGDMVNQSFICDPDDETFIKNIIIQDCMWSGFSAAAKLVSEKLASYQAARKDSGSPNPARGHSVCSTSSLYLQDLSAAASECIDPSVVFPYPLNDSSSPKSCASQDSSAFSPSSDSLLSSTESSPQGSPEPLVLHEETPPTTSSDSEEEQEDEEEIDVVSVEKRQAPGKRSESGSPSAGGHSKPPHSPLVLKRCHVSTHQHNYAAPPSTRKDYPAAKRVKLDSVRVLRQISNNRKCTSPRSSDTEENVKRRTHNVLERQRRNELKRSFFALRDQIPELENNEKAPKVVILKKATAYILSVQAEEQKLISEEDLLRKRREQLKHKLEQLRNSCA
# Calls only; i = inactive; x = not tested or not shown; + = active, no number. Some of the compounds tested. The share of hits here may be higher or lower than overall.
SMILES	STAT3 binder	mut p53 SMM	ID4 binder	Myc binder
CCCC(O)C#Cc1cnc2c(c1)C(=O)N([C@H](C)CO)C[C@H](C)[C@H](CN(C)C)O2 (stereo partly specified)	i	i	i	i
CCCCCS(=O)(=O)CCCCCCCCCCn1c(-c2ccc(O)cc2)c(C)c2cc(O)ccc21	i	i	i	i
CC(C)NC(=O)Nc1ccc2c(c1)C(=O)N([C@@H](C)CO)C[C@H](C)[C@H](CN(C)Cc1ccccc1)O2	i	i	x	i
COC(=O)c1c2oc(c1C(=O)OC)C(=O)N[C@@H](Cc1ccccc1)Cn1cc(nn1)CNC(=O)[C@@H](Cc1ccccc1)NC(=O)N[C@@H](CO)CC2	i	i	i	i
CS(=O)(=O)NC(C(=O)O)c1ccccc1 (stereo unspecified)	i	i	i	i
C[C@H]1CCCCO[C@@H](CN(C)Cc2ccccc2)[C@@H](C)CN([C@@H](C)CO)C(=O)c2cc(NS(C)(=O)=O)ccc2O1	i	i	i	i
C/C=C(\C)C(=O)O[C@H]1[C@H](OC(C)=O)[C@@]2(CO)C(CC1(C)C)C1=CCC3[C@@]4(C)CC[C@H](O[C@@H]5O[C@H](C(=O)O)[C@@H](O)[C@H](O[C@@H]6O[C@H](CO)[C@H](O)[C@H](O)[C@H]6O[C@@H]6O[C@@H](C)[C@H](O)[C@@H](O)[C@H]6O)[C@H]5O[C@@H]5O[C@H](CO)[C@@H](O)[C@H](O)[C@H]5O)C(C)(C)C4CC[C@@]3(C)[C@]1(C)C[C@H]2O (stereo partly specified)	i	i	x	i
CC(C)(O)C1Cc2cc(CCc3cc(O)cc(O)c3)ccc2O1 (stereo unspecified)	i	i	i	i
COc1ccc(S(=O)(=O)Nc2ccc3c(c2)C(=O)N([C@@H](C)CO)C[C@@H](C)[C@H](CN(C)CC2CC2)O3)cc1	i	i	i	i
COc1cc(NC(=O)COc2ccc([N+](=O)[O-])cc2)ccc1NC(=O)c1ccccc1Cl	i	i	i	i
COc1ccc(C(=O)Nc2ccc3nc(SCC(=O)N4CCOCC4)sc3c2)cc1OC	i	i	i	i
O=C(Nc1cccc([N+](=O)[O-])c1)C1CCCN(S(=O)(=O)c2ccc(F)cc2)C1 (stereo unspecified)	i	i	i	i
C[C@H]1CN([C@@H](C)CO)C(=O)c2cccc(NS(=O)(=O)c3cn(C)cn3)c2O[C@@H]1CN(C)Cc1ccc2c(c1)OCO2	i	i	i	i
Cc1ccc(C(=O)O)cc1NC(=O)COc1ccc(I)cc1	i	i	i	i
O=C(Nc1cccc([N+](=O)[O-])c1)Nc1nn(Cc2ccc(Cl)c(Cl)c2)cc1Cl	i	i	i	i
O=C(CCN1C(=O)c2ccccc2C1=O)Nc1ccccc1-c1ccccc1	i	i	i	i
CC(C)NC(=O)N(C)C[C@@H]1OCCCC[C@H](C)Oc2ccc(NC(=O)Nc3cccc4ccccc34)cc2C(=O)N([C@H](C)CO)C[C@@H]1C	i	i	i	i
COc1ccc(CN(C)C[C@@H]2Oc3ccc(NS(=O)(=O)c4ccc(OC)cc4)cc3C(=O)N([C@@H](C)CO)C[C@@H]2C)cc1	i	i	i	i
Cc1ccc(-n2c(C)nnc2SCC(=O)Nc2c(C)cccc2C)cc1C	i	i	i	i
Cc1noc(C)c1S(=O)(=O)Nc1ccc2c(c1)C(=O)N([C@H](C)CO)C[C@@H](C)[C@H](CN(C)C)O2	i	i	i	i
CNC(=O)CN(c1cc(C)ccc1C)S(=O)(=O)c1ccccc1	i	i	i	i
C[C@@H]1CN([C@@H](C)CO)C(=O)Cc2cc(NS(C)(=O)=O)ccc2O[C@H]1CN(C)C(=O)Nc1ccc(C(F)(F)F)cc1	i	i	i	i
C[C@@H]1CN([C@@H](C)CO)C(=O)c2cccc(NS(=O)(=O)c3ccccc3)c2O[C@@H]1CN(C)C	i	i	i	i
COc1ccc(S(=O)(=O)N(C)C[C@@H]2Oc3c(NC(=O)c4cc(C)nn4C)cccc3C(=O)N([C@@H](C)CO)C[C@@H]2C)cc1	i	i	i	i
CCCCC[C@H](O)/C=C/[C@H]1C(=O)C=C[C@@H]1C/C=C\CCCC(=O)O	i	i	x	i
COc1ccccc1NC(=O)CSc1nc(O)cc(=O)n1-c1ccccc1OC	i	i	i	i
CCC(=O)c1ccccc1OCCCn1cncn1	i	i	i	i
C[C@H]1CN([C@@H](C)CO)C(=O)c2cccc(NC(=O)Nc3ccc4c(c3)OCO4)c2O[C@H]1CN(C)Cc1ccc(-c2ccccc2)cc1	i	i	x	i
C[C@@H]1CN([C@@H](C)CO)C(=O)Cc2cc(NC(=O)C3CCCCC3)ccc2O[C@H]1CN(C)C(=O)Nc1ccc2c(c1)OCO2	i	i	x	i
C#Cc1ccc([C@H]2C=C(C(=O)N3CCOCC3)O[C@@H](OCCCCO)C2)cc1	i	i	x	i
C[C@@H]1O[C@H]2Oc3c(-c4ccc(O)cc4)oc4cc(O)c(c(O)c4c3=O)-c3cc(ccc3O)/C=C\C(=O)OC[C@H]3O[C@@H](O[C@H]([C@H]1O)[C@H]2O)[C@H](O)[C@@H](O)[C@@H]3O	i	i	x	i
Cc1ccc(-c2csc3nc4c5ccccc5c(NCCCN5CCOCC5)nn4c(=O)c23)cc1	i	i	i	i
C[C@@H]1CN([C@H](C)CO)C(=O)c2cc(NC(=O)c3ccncc3)ccc2O[C@@H]1CN(C)C	i	i	i	i
COc1ccc(S(=O)(=O)Nc2ccc3c(c2)C(=O)N([C@H](C)CO)C[C@H](C)[C@H](CN(C)C(=O)CCC(F)(F)F)OCCCC[C@@H](C)O3)cc1	i	i	x	i
COc1cc(CNC(=O)CCCC/C=C/C(C)C)ccc1O	i	i	x	i
C[C@@H]1O[C@@H](O[C@@H]2[C@@H](O)[C@H](O)[C@@H](CO)O[C@H]2c2c(O)cc3oc(-c4ccc(O)cc4)cc(=O)c3c2O)[C@H](O)[C@H](O)[C@H]1O	i	i	x	i
Cc1c(NC(=O)CSc2nnc(-c3cccc(Cl)c3)o2)c(=O)n(-c2ccccc2)n1C	i	i	i	i
C[C@@H]1CN([C@H](C)CO)C(=O)CCCn2cc(nn2)CO[C@H]1CN(C)C(=O)Nc1cccc2ccccc12	i	i	i	i
C[C@@H]1CCCCO[C@@H](CN(C)C)[C@H](C)CN([C@H](C)CO)C(=O)c2cc(NC(=O)Nc3ccc4c(c3)OCO4)ccc2O1	i	i	i	i
O=c1cc(-c2ccccc2)oc2cc(O)c(O)c(O)c12	i	i	x	i
C[C@H]1CCCCO[C@H](CN(C)C(=O)c2ccccc2)[C@@H](C)CN([C@@H](C)CO)C(=O)c2cc(NS(C)(=O)=O)ccc2O1	i	i	i	i
C[C@@H]1CN([C@@H](C)CO)C(=O)c2cccc(N(C)C)c2O[C@@H]1CN(C)CC1CC1	i	i	i	i
COc1ccc(NC(=O)N(C)C[C@H]2Oc3c(cccc3N(C)C)C(=O)N([C@H](C)CO)C[C@@H]2C)cc1	i	i	i	i
C[C@@H]1CN([C@H](C)CO)C(=O)c2cc(NC(=O)Nc3ccc(C(F)(F)F)cc3)ccc2O[C@@H]1CN(C)S(=O)(=O)c1ccccc1	i	i	x	i
Cc1noc(C)c1NC(=O)Nc1ccc2c(c1)C(=O)N([C@H](C)CO)C[C@H](C)[C@H](CN(C)C(=O)NC1CCCCC1)O2	i	i	i	i
CNC[C@@H]1Oc2c(NC(=O)c3nc4ccccc4s3)cccc2C(=O)N([C@@H](C)CO)C[C@@H]1C	i	i	i	i
Cc1noc(C)c1S(=O)(=O)Nc1cccc2c1O[C@@H](CN(C)Cc1ccc(C(F)(F)F)cc1)[C@@H](C)CN([C@H](C)CO)C2=O	i	i	i	i
C[C@H]1CN([C@@H](C)CO)C(=O)CCCn2cc(nn2)CO[C@H]1CN(C)Cc1ccc2c(c1)OCCN2C	i	i	i	i
C[C@H](CO)N1C[C@H](C)[C@H](CN(C)C)Oc2ccc(NC(=O)CCN3CCOCC3)cc2C1=O	i	i	i	i
Cc1noc(C)c1S(=O)(=O)Nc1ccc2c(c1)CC(=O)N([C@H](C)CO)C[C@H](C)[C@@H](CN(C)Cc1ccc(C(=O)O)cc1)O2	i	i	x	i

# Part of the list above in a different format.
# Every second line gives: STAT3 binder | mut p53 SMM | ID4 binder | Myc binder
O=C(CCN1C(=O)c2ccccc2C1=O)Nc1ccccc1-c1ccccc1
→ i | i | i | i
CC(C)NC(=O)N(C)C[C@@H]1OCCCC[C@H](C)Oc2ccc(NC(=O)Nc3cccc4ccccc34)cc2C(=O)N([C@H](C)CO)C[C@@H]1C
→ i | i | i | i
COc1ccc(CN(C)C[C@@H]2Oc3ccc(NS(=O)(=O)c4ccc(OC)cc4)cc3C(=O)N([C@@H](C)CO)C[C@@H]2C)cc1
→ i | i | i | i
Cc1ccc(-n2c(C)nnc2SCC(=O)Nc2c(C)cccc2C)cc1C
→ i | i | i | i

# Next part.
SMILES	STAT3 binder	mut p53 SMM	ID4 binder	Myc binder
CCOC(=O)c1c(C)oc2ccc(N(C(=O)c3ccncc3)S(=O)(=O)c3ccc(F)cc3C)cc12	i	i	i	i
COc1ccc(/C=C/C(=O)CC(=O)/C=C/c2cccc(O)c2OC)cc1O	i	i	x	i
CC(Sc1nnc(-c2ccc(Br)cc2)n1-c1ccccc1)C(=O)O (stereo unspecified)	i	i	i	i
Cc1ccccc1-c1nnc(SCC(=O)Nc2ccc(S(N)(=O)=O)cc2)n1C	i	i	i	i
C[C@H](CO)N1C[C@H](C)[C@@H](CN(C)C(=O)NC2CCCCC2)Oc2c(NC(=O)c3ccc(-c4nccs4)cc3)cccc2C1=O	i	i	i	i
Cc1ccc(S(=O)(=O)N(C)C[C@@H]2Oc3ccc(NC(=O)CCC(F)(F)F)cc3C(=O)N([C@H](C)CO)C[C@H]2C)cc1	i	i	x	i
Cn1ccnc1CN1CCN(Cc2nccn2C)CC1	i	i	i	i
C[C@@H]1CN([C@@H](C)CO)C(=O)c2cccc(NC(=O)NC3CCCCC3)c2O[C@@H]1CN(C)C(=O)NC1CCCCC1	i	i	i	i
Cc1ccc(-n2c(SCC(=O)Nc3ccccc3-c3ccccc3)nc3ccccc3c2=O)cc1	i	i	i	i
C[C@H](CO)N1C[C@H](C)[C@@H](CN(C)C(=O)CCCN(C)C)OCCCC[C@H](C)Oc2ccc(N(C)C)cc2C1=O	i	i	i	i
C[C@@H]1CN([C@H](C)CO)C(=O)Cc2cc(NC(=O)Nc3cccc4ccccc34)ccc2O[C@@H]1CN(C)S(=O)(=O)c1cn(C)cn1	i	i	i	i
C=CC[C@]1(C(=O)N2CCCCC2)N=C(c2ccc(OCCCO)cc2)O[C@H]1c1ccccc1	i	i	i	i
O=C1c2c(O)cc(O)c([C@@H]3C(=O)c4c(O)cc(O)cc4O[C@H]3c3ccc(O)cc3)c2O[C@@H](c2ccc(O)cc2)[C@@H]1O	i	i	x	i
C[C@@H]1CN([C@H](C)CO)C(=O)c2cc(NC(=O)CCC(F)(F)F)ccc2O[C@@H](C)CCCCO[C@H]1CN(C)Cc1ccccc1	i	i	i	i
COc1cc(OC)nc(NC(=O)CSc2nc3ccccc3s2)n1	i	i	i	i
Cn1nnc(NC(=O)COc2ccc(C3CCCCC3)cc2)n1	i	i	i	i
COc1cc2c(cc1OC)N1C(=O)C[C@]34C=CCN5CC[C@@H]2[C@@H](CC3)[C@]514	i	i	x	i
CC(C)OC(=O)CSc1nnc(-c2ccccn2)n1-c1ccccc1	i	i	i	i
C[C@@H]1CN([C@H](C)CO)C(=O)c2cc(NC(=O)C3CC3)ccc2O[C@H]1CN(C)C(=O)Nc1cccc2ccccc12	i	i	i	i
CC(C)NC(=O)Nc1ccc2c(c1)C(=O)N([C@@H](C)CO)C[C@@H](C)[C@@H](CN(C)S(=O)(=O)c1ccccc1)OCCCC[C@H](C)O2	i	i	i	i
C[C@H](CO)N1C[C@H](C)[C@@H](CN(C)C(=O)NC2CCCCC2)Oc2ccc(NS(C)(=O)=O)cc2C1=O	i	i	i	i
Cc1noc(C)c1NC(=O)N(C)C[C@@H]1OCCCC[C@@H](C)Oc2ccc(NS(=O)(=O)c3cccs3)cc2C(=O)N([C@H](C)CO)C[C@H]1C	i	i	+	i
COC(=O)COc1ccc(C2NC(=S)NC(C)=C2C(=O)OC)cc1 (stereo unspecified)	i	i	i	i
C[C@@H]1CN([C@H](C)CO)C(=O)c2cccc(NC(=O)Nc3ccc(C(F)(F)F)cc3)c2O[C@H]1CN(C)C(=O)Nc1ccc(F)cc1	i	i	i	i
CC(C)NC(=O)Nc1ccc2c(c1)C(=O)N([C@H](C)CO)C[C@H](C)[C@H](CN(C)Cc1ccccc1)OCCCC[C@H](C)O2	i	i	i	i
C=CCNC(=O)[C@H]1[C@@H]2C(=O)O[C@@H](c3ccccc3)[C@@H](c3ccccc3)N2[C@@H](c2ccc(OCCO)cc2)[C@]12C(=O)N(C(=O)OCCOC)c1ccc(C#CC3(O)CCCCCC3)cc12	i	i	x	i
Cc1ccc(S(=O)(=O)N(C)C[C@@H]2OCCCC[C@@H](C)Oc3ccc(NC(=O)c4ccccc4)cc3C(=O)N([C@@H](C)CO)C[C@@H]2C)cc1	i	i	x	i
